# RGS16-Gao HTS = modulators of RGS16 binding to Galphao, primary screen, biochemical, human proteins, multiplexed bead flow cytometry; Regulator of G-protein signaling 16 (Homo sapiens) + Guanine nucleotide-binding protein …; bead-based flow cytometry RGS16-Galphao binding, fluorescence; actives lie on both sides; binding response (% of control), % at 10 µM; 0.38% of 220,000 active; AID 1441, 2008;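 active = below 25% or above 175%, edge rows of some plates excepted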;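 also: Galphao activated by GDP with aluminum fluoride before binding; 100% = wells without compound and 0% = beads without RGS; some results beyond the cut were filed as inactive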
# Target sequence (O15492 whole entry, looked up): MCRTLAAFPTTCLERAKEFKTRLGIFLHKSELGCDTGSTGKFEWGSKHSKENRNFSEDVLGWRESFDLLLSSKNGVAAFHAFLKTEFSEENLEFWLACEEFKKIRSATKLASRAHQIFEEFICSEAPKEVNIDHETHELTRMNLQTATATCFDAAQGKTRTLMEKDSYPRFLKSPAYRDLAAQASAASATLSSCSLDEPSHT
# Target sequence (P09471 whole entry, looked up): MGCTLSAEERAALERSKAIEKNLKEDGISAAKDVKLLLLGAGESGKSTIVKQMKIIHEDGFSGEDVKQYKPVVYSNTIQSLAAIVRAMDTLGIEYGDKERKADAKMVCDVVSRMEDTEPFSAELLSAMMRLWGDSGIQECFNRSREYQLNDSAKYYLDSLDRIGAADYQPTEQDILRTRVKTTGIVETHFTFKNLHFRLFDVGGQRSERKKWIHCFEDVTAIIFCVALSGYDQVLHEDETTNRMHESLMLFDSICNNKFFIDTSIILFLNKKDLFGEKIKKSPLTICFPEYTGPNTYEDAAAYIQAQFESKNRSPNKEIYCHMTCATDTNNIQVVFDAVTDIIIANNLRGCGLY
# PKD1 inh = inhibitors of human PKD1 kinase, biochemical, fluorescence polarization. 0.056% of 200,000 active. PKD1 kinase fluorescence polarization assay. Serine/threonine-protein kinase D1 (Homo sapiens), Q15139. inhibition, %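 (about 10 µM by stock and volumes)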;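 active = inhibition of 50% or more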;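 also: controls were vehicle for no effect and a reference inhibitor for full effect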
# HSV replic up = enhancers of HSV replication in host cells, fold increase, host cell viability; maximum fold increase; 0.005% of 220,000 active; AID 1956, 2009; HSV replication augmentation in cells;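 active = peak rise of 1.5-fold or more in the series; tested in PC3 cells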;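 also: first round at 10 µM; read as green reporter fluorescence; hits show the peak of a series up to 25 µM; 1 = signal of infected wells without compound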
# GALR2 agonist = GALR2 receptor agonists, primary screen, cell-based. Galanin receptor type 2 (Homo sapiens), O43603. GALR2-expressing cells, agonist activation read-out. activation, %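 (tested at 5 µM)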. 0.48% of 140,000 active;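 active = above mean plus 3 SD of all compounds, about 5% in these data, not always enough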;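 also: 0% = vehicle buffer wells and 100% = reference agonist at full effect; tested in CHO reporter cells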
# Target sequence (O43603 whole entry, looked up): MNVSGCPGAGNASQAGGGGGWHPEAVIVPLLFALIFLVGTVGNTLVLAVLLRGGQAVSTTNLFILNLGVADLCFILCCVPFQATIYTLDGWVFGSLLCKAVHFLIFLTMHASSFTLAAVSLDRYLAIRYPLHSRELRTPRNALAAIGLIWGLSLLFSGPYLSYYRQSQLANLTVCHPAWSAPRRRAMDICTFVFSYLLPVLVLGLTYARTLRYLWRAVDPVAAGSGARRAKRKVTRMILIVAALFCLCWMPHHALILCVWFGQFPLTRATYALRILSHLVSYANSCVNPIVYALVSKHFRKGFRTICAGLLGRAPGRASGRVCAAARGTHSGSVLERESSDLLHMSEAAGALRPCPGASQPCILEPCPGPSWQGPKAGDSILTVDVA
# Insulin prom inh = inhibitors of insulin promoter-driven GFP, primary screen, imaging, TRM-6 cells (human fetal islet line), eGFP reporter, cell count. 0.9% of 130,000 active. inhibition, % at 2 µM. reporter expression induced with tamoxifen;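 active = inhibition above the mean plus 3 SD, with well images judged a real hit on visual review, cut at about 60% in these data, passing the limit was not always enough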
# Insulin prom inh cell count = also measured in Insulin prom inh; calls as there; normalized cell count, %; measured here: cell count, toxicity; reference of the scale not given here;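 cells exposed to compound for 48 h; stained nuclei by imaging scaled within each plate; lower means fewer cells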
# HSV replic up primary fold = also measured in HSV replic up; calls as there; fold increase; compound at 10 µM; measured here: primary screen fold increase 10 uM; tested in PC3 cells;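 GFP signal in the first replicate; 1 = infected wells without compound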
# Active calls of the source: *; i = inactive; . = not tested or not shown.
SMILES,RGS16-Gao HTS,PKD1 inh,HSV replic up,HSV replic up primary fold,GALR2 agonist,Insulin prom inh,Insulin prom inh cell count
FC(F)(F)c1ccc(N2CCN(c3cc(-c4ccccc4)nc4ncnn34)CC2)nc1,101,-7,i,0.88,-1.8,.,.
Cc1cc(C)c2c(n1)sc1c(N3CCCCC3)ncnc12,93,.,i,1.1,.,.,.
O=C(NCc1cccnc1)C(=O)C1C(=O)Nc2ccccc21 (stereo not given),99,.,i,1.1,.,.,.
O=S(=O)(c1cccc(C(F)(F)F)c1)N1CCN(C(=S)NCc2ccco2)CC1,100,-2,i,0.99,-0.6,-33,143
Cc1cc(C)cc(N2C(=O)CC(n3nc(C)cc3C)C2=O)c1 (stereo not given),115,-7,i,0.95,-0.7,-10,106
CCOC(=O)c1oc2ccccc2c1CN1CCN(c2ccccc2)CC1,102,-5,i,0.85,-1.1,9,124
CCOc1ccc(NC(=S)NC23CN4CN(CN(C4)C2)C3)cc1,101,-2,i,0.93,.,12,118
CCSc1sc(CC)cc1C=O,101,-3,i,0.96,.,.,.
CCOC(=O)Nc1ccc2c(c1)N(C(=O)CCN1CCN(C)CC1)c1ccccc1S2,89,-4,i,0.91,-3.3,3,71
COc1ccccc1N1CCN(/N=C/C=C\c2ccco2)CC1,98,-6,i,0.9,-5.7,-86,73
CCOCCCNS(=O)(=O)c1ccccc1,81,-3,i,0.78,-4.1,-6,72
CC(Nc1nc2ccccc2n2cnnc12)c1ccccc1 (stereo not given),101,.,i,0.95,.,.,.
O=C(CN1C(=O)C2C3C=CC(C3)C2C1=O)NCCc1ccccc1Cl (stereo not given),101,1,i,0.96,-1.5,-82,54
CC(/C=N/NC(=O)c1cc(C2CC2)[nH]n1)=C\c1ccccc1,103,.,i,0.87,.,.,.
CCOC(=O)c1cnc(SCc2ccccc2)nc1N,109,-10,i,0.88,-3.5,-106,96
CCSc1nnc(CNC(=O)C23CC4CC(CC(C4)C2)C3)n1C1CCCCC1,101,6,.,.,0.0,.,.
OCCN1CCN(c2ncnc3c2c(-c2ccccc2)cn3-c2ccc(F)cc2)CC1,102,1,i,0.74,.,-33,147
Cc1cccc(Oc2nc(-c3ccncc3)nc3ccccc23)c1,112,.,i,0.94,.,.,.
CC1(C(=O)Nc2cccc(C(F)(F)F)c2)CO1 (stereo not given),100,-3,i,0.91,.,36,58
COc1cccc(C(C(=O)NC2CCCCC2)N(C(=O)c2ccccn2)c2cccnc2)c1 (stereo not given),100,-6,i,1.3,.,i,71
CCOc1ccc2c(c1)c1nnc(SCC(=O)N3CCCCC3C)nc1n2C (stereo not given),102,-6,i,0.99,-1.7,.,.
Cn1nnnc1SCCNCc1cc(Cl)ccc1OCc1ccccc1,50,-5,i,0.89,-0.6,9,114
COc1ccccc1C(=O)N1CCC(C(=O)c2ccc(F)cc2)CC1,98,2,i,0.79,0.1,.,.
COc1ccccc1-c1noc(-c2ccccc2C(=O)NCc2ccco2)n1,97,0,i,0.99,.,.,.
N#Cc1nc(-c2ccc(F)cc2)oc1N1CCCC1,74,-7,.,.,-0.3,.,.
COC(=O)c1ccccc1NC(=O)Cn1nnc(-c2ccc(OC)cc2)n1,100,-7,i,0.83,-1.9,29,100
O=C(COC(=O)COc1ccccc1Cl)Nc1ccccc1OC(F)F,82,-7,i,0.9,-2.4,21,116
CCCC(=O)NC(=S)Nc1cccc(NC(=O)c2ccc(Cl)cc2Cl)c1,106,-7,i,0.97,-0.4,-7,60
CC1=C(C(=O)OCC2CCCO2)C(c2ccc(Cl)c(Cl)c2)NC(=O)N1 (stereo not given),101,1,i,0.97,.,.,.
CCN(CC)CC(=O)c1c(N)n(Cc2ccccc2)c(=O)n(C)c1=O,90,-4,i,0.98,.,-9,128
O=S(=O)(c1ccc(-c2nc3ccccc3s2)cc1)N1CCCC1,99,7,i,0.92,0.8,.,.
CC(=O)c1ccc(NC(=O)/C(Cl)=C/c2ccccc2)cc1,102,-4,i,1.1,.,.,.
Cc1cc(C)c2c(N)c(-c3nc4ccccc4[nH]3)sc2n1,30,-2,i,0.9,-0.4,33,57
CN1/C(=C\C(=O)COC(=O)Cn2nnc(-c3ccccc3)n2)C(C)(C)c2ccccc21,100,-5,i,0.98,-0.6,26,114
CC(C)c1ccc(Nc2nc(CC(=O)O)cs2)cc1,103,-5,i,0.89,.,-36,155
NC1=NC(=Nc2ccc(Cl)cc2)c2ccccc21,105,6,i,0.72,0.1,.,.
O=C(NCC1CCCO1)C12CN(Cc3ccccc3)CC1C(c1cccc([N+](=O)[O-])c1)=NO2 (stereo not given),99,5,i,0.93,0.4,43,128
Cc1nnsc1C(=O)N1CCC(CO)(Cc2ccccc2Cl)CC1,101,.,i,0.88,.,.,.
CCCCOC(=O)c1cccc(NC(=O)CCC(=O)O)c1,103,-11,i,1,-0.5,.,.
COC(=O)n1c(=O)oc2ccccc21,100,4,i,0.94,-1.1,29,113
C=C(Br)Cn1c(CC(C)C)nc2ccccc21,102,-2,i,0.79,-1.2,-9,51
c1ccc(CCc2nn3c(Cn4nnc5ccccc54)nnc3s2)cc1,70,3,i,1,-0.2,-9,84
O=C(COc1ccccc1[N+](=O)[O-])Nc1cc(C(=O)O)cc(C(=O)O)c1,112,5,i,0.91,.,-64,103
CCn1c2ccc(OC)cc2c2nc3ccccc3nc21,107,4,i,1,-0.9,25,150
CCn1c(/C=C2/C(=O)N(C)c3ccccc32)nc2ccccc2c1=O,104,12,i,0.72,-0.2,.,.
CS(=O)(=O)N(CC(=O)O)c1cc(Cl)cc(Cl)c1,103,-11,i,0.96,-3.3,-221,74
COc1ccc(N2CCN(C(=O)C3CC(=O)N(c4ccc(C)cc4)C3)CC2)cc1 (stereo not given),102,-5,i,1,.,58,137
CN(C)c1ccc(/C=C2\N=C(c3ccc(Cl)c([N+](=O)[O-])c3)NC2=O)cc1,100,-1,i,0.94,.,.,.
CS(=O)c1ccccc1-c1nc(-c2cc(C(F)(F)F)cc(C(F)(F)F)c2)no1 (stereo not given),99,0,.,.,-0.6,.,.
CS(=O)(=O)N1CCN(C(=O)c2ccc(Br)s2)CC1,103,4,i,0.91,-2.6,64,135
O=C(COC(=O)c1cc(Cl)ccc1[N+](=O)[O-])NCc1ccc(Cl)cc1Cl,148,-12,i,1,0.2,-33,111
CCc1nnc(NS(=O)(=O)c2ccc(N=Cc3c(C)[nH]n(-c4ccc(Cl)cc4)c3=O)cc2)s1,124,-2,i,0.99,-0.3,33,86
O=S(=O)(NCC1CCCO1)c1ccc(S(=O)(=O)N(Cc2ccccn2)C2CC2)cc1 (stereo not given),102,-19,i,1.1,1.1,.,.
O=C(Cc1ccccc1)Nc1c[nH]c(=O)[nH]c1=O,98,-1,i,1.2,0.6,.,.
Cn1c(C(=O)O)c(CC(=O)NCc2cccnc2)c2ccccc21,89,-2,i,1,-0.6,.,.
C[C@@H](C(=O)Nc1ccc2ccccc2c1)[C@@H]1C[C@@]1(C)[C@@H](NC(=O)c1cnccn1)c1ccccc1,104,-10,i,1,-2.4,23,88
CC(/C=N/Nc1nc(C)cc(C)n1)=C\c1ccc(C(C)C)cc1,99,-6,i,0.92,-2.8,-29,93
O=c1cnn(-c2ccccc2)c(-c2ccccc2)c1,96,-10,i,0.85,-0.8,67,60
CN(C)C(C(=O)NC1CCCCC1)c1ccc(Cl)cc1 (stereo not given),108,-6,i,0.9,-0.7,.,.
COc1cccc(CCc2nnc(CCC(=O)NCCc3cccc(C)n3)o2)c1,102,-2,i,0.99,.,-8,98

# (listing goes on)
SMILES,RGS16-Gao HTS,PKD1 inh,HSV replic up,HSV replic up primary fold,GALR2 agonist,Insulin prom inh,Insulin prom inh cell count
N#Cc1c(-c2ccccc2Cl)cc(-c2ccccc2)nc1Br,100,-15,i,1,0.9,23,130
CN(C)C(/C=C/Nc1cccc([N+](=O)[O-])c1)=C(C#N)C#N,109,-5,i,0.93,.,27,174
O=C(NCCC1=CCCCC1)C1CCN(C(=O)c2ccc(Br)cc2)CC1,97,-3,i,1,0.1,.,.
COc1ccc(C(C)=O)cc1COC(=O)c1ccc(OCc2c(C)noc2C)cc1,-69,-2,i,0.99,-2.3,.,.
CCOC(=O)c1ccc(NC2c3ccccc3C(=O)N2c2ccccn2)cc1 (stereo not given),103,6,i,0.87,-2.0,.,.
CCOC(=O)C(=Cc1cn(C)c2ccc(S(=O)(=O)N(C)C)cc12)C(=O)OCC,113,6,i,0.74,.,57,101
CCCCCOC(=O)NCC(O)c1ccccc1 (stereo not given),100,3,i,1.3,1.5,50,132
O=C1CCN(S(=O)(=O)c2ccc(Br)cc2)CCN1,103,0,i,1,.,4,106
Cc1cc(C)n(CC(O)COCc2ccco2)n1 (stereo not given),92,1,i,0.87,-0.8,3,91
Clc1cccc(OCCN2CCNCC2)c1,89,-16,i,0.94,-0.5,7,112
COc1ccc(N(C(=O)Cc2cccs2)C2C=CS(=O)(=O)C2)cc1 (stereo not given),99,1,i,1,.,.,.
O=C1c2ccccc2CCC12N=NCC2c1ccc(Br)cc1 (stereo not given),112,-1,i,0.8,0.3,18,191

# Retrieved by structure from the entries so far (six):
SMILES,RGS16-Gao HTS,PKD1 inh,HSV replic up,HSV replic up primary fold,GALR2 agonist,Insulin prom inh,Insulin prom inh cell count
CN(C)c1ccc(/C=C2\N=C(c3ccc(Cl)c([N+](=O)[O-])c3)NC2=O)cc1,100,-1,i,0.94,.,.,.
CS(=O)(=O)N(CC(=O)O)c1cc(Cl)cc(Cl)c1,103,-11,i,0.96,-3.3,-221,74
CC(C)c1ccc(Nc2nc(CC(=O)O)cs2)cc1,103,-5,i,0.89,.,-36,155
OCCN1CCN(c2ncnc3c2c(-c2ccccc2)cn3-c2ccc(F)cc2)CC1,102,1,i,0.74,.,-33,147
N#Cc1c(-c2ccccc2Cl)cc(-c2ccccc2)nc1Br,100,-15,i,1,0.9,23,130
CCCCCOC(=O)NCC(O)c1ccccc1 (stereo not given),100,3,i,1.3,1.5,50,132

# Given with each value named: part of the list above.
Cc1cc(C)n(CC(O)COCc2ccco2)n1 (stereo not given)
  RGS16-Gao HTS = 92
  PKD1 inh = 1
  HSV replic up = i
  HSV replic up primary fold = 0.87
  GALR2 agonist = -0.8
  Insulin prom inh = 3
  Insulin prom inh cell count = 91
Clc1cccc(OCCN2CCNCC2)c1
  RGS16-Gao HTS = 89
  PKD1 inh = -16
  HSV replic up = i
  HSV replic up primary fold = 0.94
  GALR2 agonist = -0.5
  Insulin prom inh = 7
  Insulin prom inh cell count = 112
COc1ccc(N(C(=O)Cc2cccs2)C2C=CS(=O)(=O)C2)cc1 (stereo not given)
  RGS16-Gao HTS = 99
  PKD1 inh = 1
  HSV replic up = i
  HSV replic up primary fold = 1
  GALR2 agonist = .
  Insulin prom inh = .
  Insulin prom inh cell count = .

# Other entries:
SMILES,RGS16-Gao HTS,PKD1 inh,HSV replic up,HSV replic up primary fold,GALR2 agonist,Insulin prom inh,Insulin prom inh cell count
O=C(CNC1CCCCCC1)c1cccs1,104,-1,i,1.1,-1.1,64,97
CCN(C(=O)c1cccs1)c1nc(-c2ccc(OC)cc2)cs1,103,0,i,1.1,.,-13,70
COc1cc(C(=O)NC(=S)Nc2ccc3c(c2)OCO3)cc(OC)c1OC,109,.,i,1.1,.,.,.
O=C1N=C(N2CCOCC2)S/C1=C\c1cccs1,94,-3,i,1,.,.,.
Cc1cccc(CSc2nnc([C@@H]3CCCN3)o2)c1,92,.,i,1.1,.,.,.
Cc1ccccc1CC1(CO)CCCN(C(=O)c2ccccc2N(C)C)C1 (stereo not given),108,3,i,0.96,.,-93,97
CCOc1ccc(/C=N/n2cc(-c3ccccc3)[nH]c2=S)cc1,89,-1,i,1.2,.,.,.
CCOc1ccc(NC(=O)c2cccc(OC(=S)N3CCOCC3)c2)cc1,106,-3,i,0.98,.,7,107
O=C(Nc1cccnc1)Nc1ccccn1,98,-1,i,1,-1.4,3,72
Cc1c(C(=O)O)sc2nc(CSc3ncc(C(F)(F)F)cc3Cl)[nH]c(=O)c12,106,.,i,0.99,.,.,.
COc1ccc2c(C)cc(SCC(=O)Nc3nsc(-c4ccc(C)cc4)n3)nc2c1,84,-3,.,.,-2.0,22,131
O=C(COC(=O)c1n[nH]c2ccccc12)Nc1cccc(S(=O)(=O)N2CCOCC2)c1,98,-6,i,1.1,.,.,.
Cc1cccnc1CN1CCN(C(=O)c2cc(COc3ccc4ncccc4c3)on2)CC1,96,4,i,1.1,.,.,.
O=C(Cn1nc(C(F)F)cc1C1CC1)NCCC1=CCCCC1,102,4,i,0.82,-2.8,-39,95
O=C(CSc1nc2ncc(Cl)cc2[nH]1)N(Cc1ccccc1)C1CCS(=O)(=O)C1 (stereo not given),100,-8,i,0.97,.,.,.
COC(=O)c1cn(NC(=O)c2cnccn2)c(=O)c2ccccc12,97,7,i,0.9,-1.0,19,92

# Screening data (PubChem)
